UCH37 inh: human UCH37 deubiquitinating enzyme inhibition | Q9Y5K5 | purified proteasome/UCH37, Ub-AMC cleavage fluorescence | inhibition, % (test concentration not listed) | 330,000 compounds, 0.33% hits | AID 588478;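 active = mean of two replicates above 20%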;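 note: 0% = compound-free wells with enzyme and 100% = wells lacking proteasome; stock transfer was 100 nL into about 20 µL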
Target sequence (Q9Y5K5 whole entry, looked up): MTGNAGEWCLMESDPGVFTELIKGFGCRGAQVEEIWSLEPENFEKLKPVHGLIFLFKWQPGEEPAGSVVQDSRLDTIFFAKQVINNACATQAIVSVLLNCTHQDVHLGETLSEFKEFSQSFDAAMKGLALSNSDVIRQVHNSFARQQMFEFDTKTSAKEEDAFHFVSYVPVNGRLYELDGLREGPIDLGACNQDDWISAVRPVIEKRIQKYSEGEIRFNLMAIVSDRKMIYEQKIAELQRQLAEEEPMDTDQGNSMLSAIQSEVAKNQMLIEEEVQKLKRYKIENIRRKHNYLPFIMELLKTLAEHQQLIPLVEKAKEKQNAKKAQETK
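system = Proteasome-associated human UCH37 deubiquitinase | amount = 0.15 nM proteasome as dispensed | medium = pH 7.4 Tris-HCl (50 mM) with ovalbumin, ATP-MgCl2, DTT | incubation = 30 min preincubation with enzyme, 25 min cleavage at room temperature | detection = AMC fluorescence 355/460 nm | read-out basis = percent inhibition | controls = no-proteasome and no-compound wells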
A1 inh: inhibitors of the anti-apoptotic protein A1, read as caspase activation; MEF A1-2A-BIM cells, Caspase-Glo 3/7 luminescence, 3 h; percent of clofoctol response, vehicle zero; caspase activation, % (no concentration beside the values); 330,000 compounds, 0.066% hits;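 active = over half of replicate activation scores above 10%, or exactly half above 10 with the replicate mean above 10; inconclusive = replicate mean below 10 yet half the replicates above 10; inactive = over half of replicates below 10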;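 note: wells of about 30 µL received 50 nL stock; many hits fall short of the cut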
RanGTP-Impb inh: disruptors of Ran-importin-beta complex formation – biochemical, FRET, CFP-Ran, YFP-importin-beta, homogeneous, primary screen; cell-free CFP-Ran/YFP-importin-beta FRET ratio; AID 2216; inhibition, % (no concentration beside the values); 300,000 compounds, 1.1% hits;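 active = most replicates above 15%; inconclusive = exactly half above 15%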;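 note: 0% = DMSO wells and 100% = Ran loaded with GDP instead of GTP; wells of about 40 µL received 100 nL stock; the first replicate is given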
LANA-H2A inh: blocks KSHV LANA binding to histone H2A/H2B | inhibition, % (concentration not given with the values) | Q9QR71 | 320,000 compounds, 0.6% hits | cell-free LANA-H2A/H2B peptide, fluorescence polarization; in the data active = inhibition mostly above about 10%, no sharp cut-off; inactive = mostly below about 6.7%;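 note: stock transfer was 7.5 nL into about 10 µL; 0% = median of vehicle wells and 100% = median of positive control wells; one replicate is shown; the record names a cut of 25% in any replicate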
T cruzi repl: blocks replication of Trypanosoma cruzi; T. cruzi beta-gal in NIH3T3, luminescence, 90 h; inhibition, % (no concentration beside the values); 300,000 compounds, 1.4% hits; AID 1885;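 active = mean inhibition across valid replicates above about 55%, limit read from the data; inconclusive = mean below that limit but half or more replicates reach it; inactive = mean below it, under half of replicates reach it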;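 note: signal also drops with host cell toxicity which is not excluded here; 0% = plate median of DMSO wells and 100% = zero luminescence signal; higher percent means less beta-gal luminescence so fewer parasites; stock transfer was 50 nL into about 50 µL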
Beta cell apopt: beta cell apoptosis inhibition; INS-1E cytokine-induced death, ATP luminescence, 48 h; percent of positive-control rescue, neutral wells zero; protection from apoptosis, % (concentration not given with the values); 300,000 compounds, 0.8% hits; AID 435005;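 active = all replicates at 75% or more, or half of them and the mean; inconclusive = half reach 75% but not the mean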;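 note: 0% = cytokine-treated negative control wells and 100% = positive control rescue; higher means more ATP so stronger rescue from cytokine killing; wells of about 40 µL received 100 nL stock; the first replicate is given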
Calb FLC: affects C. albicans growth with fluconazole; C. albicans CaCi-2 (fluconazole-resistant clinical isolate) + fluconazole, Alamar Blue growth, 48 h; AID 1979; 300,000 compounds, 0.57% hits; growth inhibition, % (test concentration not listed);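 active = most replicates above 75%; inconclusive = exactly half above 75%; inactive = most below 75%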;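 note: all wells also contain fluconazole at 8 µg/ml as a sub-toxic cotreatment; 0% = median of DMSO wells and 100% = median of geldanamycin control wells; wells of about 8 µL received 7.5 nL stock; the first replicate is given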
Beta2AR agonist: activates human beta-2 adrenergic receptor causing internalization; P07550; Am2.2-beta2AR cells, FAP receptor internalization, flow cytometry; reference of the scale not given here; response, % (concentration not given with the values); 340,000 compounds, 0.43% hits; AID 504454;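 active = response above a set limit, near 3 SD of response in nonfluorescent compounds, cut at about 42% in these data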;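 note: stock transfer was 100 nL into about 11 µL; a reference agonist was the positive control; negative values mostly stem from fluorescent compounds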
Target sequence (P07550 whole entry, looked up): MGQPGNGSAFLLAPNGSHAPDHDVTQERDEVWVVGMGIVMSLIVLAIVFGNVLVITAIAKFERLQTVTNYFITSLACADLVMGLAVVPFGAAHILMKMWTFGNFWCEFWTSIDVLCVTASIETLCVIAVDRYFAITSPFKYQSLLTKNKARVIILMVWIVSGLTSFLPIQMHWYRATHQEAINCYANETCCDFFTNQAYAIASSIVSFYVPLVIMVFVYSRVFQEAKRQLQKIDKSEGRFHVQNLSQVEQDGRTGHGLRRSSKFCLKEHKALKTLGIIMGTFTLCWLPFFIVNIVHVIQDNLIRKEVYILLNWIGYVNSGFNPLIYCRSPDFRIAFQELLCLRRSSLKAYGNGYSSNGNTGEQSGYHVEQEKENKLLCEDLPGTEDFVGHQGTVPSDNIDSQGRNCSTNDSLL
Active calls of the source: *; ? = inconclusive; nt = no result given.

Order of values: UCH37 inh, Calb FLC, RanGTP-Impb inh, Beta2AR agonist, T cruzi repl, A1 inh, LANA-H2A inh, Beta cell apopt
CCSc1nnc(Cc2cc(=O)[nH]c(=O)[nH]2)n1-c1ccc(F)cc1
 : 4.9, 3, 5.4, 0, -11, 0.3, 4.3, -2
CCc1cccc(NC(=O)CCCSc2nc3ccccc3[nH]2)c1
 : 7.2, 5, -1.4, -9, -24, 0.6, -3.8, -7
O=C1c2oc3ccccc3c(=O)c2C(c2cccc(Br)c2)N1Cc1ccco1 (stereo not given)
 : 1.3, 1, -0.7, -16, 29, -0.4, -3.3, 2
O=C(Nc1cccs1)Nc1ccccc1Br
 : -1.0, 9, 2.3, -7, 13, -4.7, -0.9, 8
Nc1nnc(CC(=O)NCc2ccccc2)s1
 : 0.2, 2, 1.9, 5, -10, -0.7, 2.0, 1
COc1ccc(C(=O)Nc2ccc(C(=O)O)cc2NC(=O)c2ccc(OC)cc2)cc1
 : 2.9, 0, -1.9, 10, -2, -0.3, 4.9, 0
CCOC(=O)N1CCN(CC(O)COc2ccc3c(c2)CCC3)CC1 (stereo not given)
 : 3.0, -1, 2.1, -3, 10, -1.3, 1.1, nt
C(=N\Nc1nc(N2CCCC2)nc(N2CCCC2)n1)/c1ccncc1
 : nt, -8, -5.4, -4, -10, 0.1, 3.4, -1
CCOP(=O)(OCC)c1nc(-c2ccccc2)oc1NCc1ccccc1
 : -84, 9, 5.2, -5, -8, 0.8, 1.2, 4
CN(CC(=O)Nc1cccc(F)c1)C(=O)CC1CCCCC1
 : 3.1, -12, -2.1, 6, -10, 1.1, -1.9, 1
CCCCN1C(=O)c2cccc3cc(O)cc(c23)C1=O
 : -12, 3, -30, 5, 9, -0.4, 1.4, 1
COc1ccccc1NC(=O)C(=O)N1N=C(C(C)C)CC1(O)C(F)(F)F (stereo not given)
 : 1.0, -17, -1.2, 4, -11, -0.5, 5.6, 4
N=c1c2c(-c3ccccc3)c(-c3ccccc3)n(Cc3ccco3)c2ncn1Cc1ccco1
 : -6.9, ?, 6.7, 35, 57*, 0.9, 0.9, 68
Fc1ccc(-c2nc3c(-c4ccccc4)cnn3cc2CCN2CCOCC2)cc1
 : 1.4, 1, 1.9, -9, 14, -0.5, 1.2, -5
CCc1nnc(NC(=O)c2ccc(-c3ccc([N+](=O)[O-])cc3Cl)o2)s1
 : 3.2, -13, 0.7, -1, -1, -0.4, 6.8, -11
COCCn1c(SCC(=O)NCCc2ccccc2)nnc1-c1ccco1
 : 2.9, ?, -6.3, 0, -6, 0.4, -3.3, -5
O=C(CN1CCOCC1)NC1C2CC3CC(C2)CC1C3 (stereo not given)
 : 1.0, -4, -3.1, -4, -3, 1.0, 0.1, -8
CCn1nnnc1SCC(=O)NNC(=O)C1CCCCC1
 : -0.4, -2, 2.1, 17, 8, -0.2, 2.2, -10
Cc1ccc(NC(=O)c2ccc(CSc3ncnc4nc[nH]c34)cc2)c(C)c1
 : 5.5, -7, 3.3, 5, -13, 0.1, 9.6, -11
CC(=O)N(c1ccccc1)C1SC(=O)N(c2ccccc2)C1=O (stereo not given)
 : 2.5, 23, ?, 11, -5, 0.2, 0.7, -4
COc1c(C)cc(C(=O)C2CCCN(C(=O)c3ccc4[nH]ccc4c3)C2)cc1C (stereo not given)
 : 2.2, 16, 0.7, 12, 31, 1.5, 1.4, 3
CCc1cccc2c(C(=O)COC(=O)C3=NNC(=O)CC3)c[nH]c12
 : 5.0, -12, -0.1, 8, -2, 0.1, -5.8, 1
COc1ccc(/C=C/C(=O)OCC(=O)Nc2cccc(S(=O)(=O)NC3=NCCCCC3)c2)cc1
 : 1.8, nt, nt, 6, nt, -0.3, -1.3, -6
CN(CCc1cnn(C)c1)Cc1cn(C)nc1-c1ccccc1F
 : 1.0, -6, 1.9, 6, -4, -0.7, nt, -8
Cc1ccc(C(O)CN2C3=NCCN3c3ccccc32)cc1 (stereo not given)
 : -1.3, -10, -1.9, -8, -1, 0.5, 2.5, -7
CCOC(=O)C1=C(C)NC2=C(C(=O)CCC2)C1c1coc2ccccc2c1=O (stereo not given)
 : 7.0, -9, 6.2, -1, -10, 0.5, -3.9, -10
Fc1ccccc1CNC(=S)Nc1ccc(Cl)cc1
 : 3.3, -34, 8.3, 9, 3, 0.3, -2.1, -10
Cc1ccc(COc2ccc(S(=O)(=O)N3CCCC3)cc2C(N)=O)cc1
 : -1.6, -12, -2.3, -10, 15, -0.2, 2.0, -3
O=[N+]([O-])c1ccc(N2CCc3ccccc3C2)nc1
 : 0.7, -40, -3.7, 8, 0, -1.5, 0.4, 7
COCCN(CCOC)c1nc(-c2ccc(C)cc2)nc2ccccc12
 : -4.4, 13, 5.6, 1, 24, 0.6, 0.2, 5
O=[N+]([O-])c1ccc(NC(=S)NCCc2ccc(F)cc2)cc1
 : 7.5, ?, 1.1, 7, 34, 1.4, 0.0, 76*
CCCNC(=O)NC(C)C12CC3CC(CC(C3)C1)C2 (stereo not given)
 : 1.4, -19, 3.3, 0, 6, 0.7, 3.0, 1
O=C(CCCSc1nc2ccccc2[nH]1)N1CCN(c2ccccc2)CC1
 : 0.7, 3, ?, -3, 9, -0.2, -3.7, 5
Cn1c(C(=O)OC(C(=O)NC2CCCCC2)c2ccncc2)cc2sccc21 (stereo not given)
 : 0.3, -1, 3.6, -13, 58*, -0.1, -3.6, 5
COc1cccc(C(c2c(C)[nH]n(-c3ccccc3)c2=O)c2c(C)[nH]n(-c3ccccc3)c2=O)c1OC
 : 9.4, -2, -1.1, 20, -5, 0.4, -4.6, -8
Cc1ccc(C(=O)NNC(=S)NC(=O)c2ccco2)cc1
 : 8.4, 28, ?, 2, 4, 0.1, 4.1, 22
CC/C(=N\NS(=O)(=O)c1ccc(C)cc1)c1ccco1
 : nt, -7, -5.0, 26, 8, -0.8, 1.0, 0
CCC1CCCCN1CCCNC(=O)CCCOc1cc(=O)n(C)c2ccccc12 (stereo not given)
 : 0.5, -10, 0.3, -12, -12, 0.1, -4.1, -5
Cc1cnc([N+](=O)[O-])n1CCOC(=O)NC(=O)c1cccc(F)c1
 : 5.9, 18, -0.3, -15, -10, -1.2, -2.4, 4
CC(=O)c1ccc(-c2ccc(C(=O)NC3CCCCCC3)o2)cc1
 : -5.8, 6, -0.8, -1, 4, 0.0, -1.1, 10
Cc1ccc(SCc2nnc(NC(=O)c3ccccc3)s2)cc1
 : 3.7, -33, -9.7, 3, -3, -5.7, 0.4, -5
O=C(Nc1cc2c3c(c1)CC(=O)N3CCC2)c1c(F)cccc1F
 : 4.4, 0, 1.0, 0, -3, -0.2, -6.2, -4
FC(F)(F)c1nc2ncc(Cl)cc2[nH]1
 : 0.4, 53, -1.4, 4, -21, 0.3, 0.0, 6
O=C(c1ccco1)N1CCN(Cc2c(F)cccc2Cl)CC1
 : -3.3, -7, -4.6, -6, -8, -0.2, 3.9, 4
Cc1nn(CC(=O)NCc2cc3ccccc3[nH]2)c(C)c1[N+](=O)[O-]
 : 2.5, -3, 0.2, 9, -6, -0.5, 2.4, -11
COC(=O)c1ccc(NCC(=O)N2CCCCCC2)cc1
 : -0.6, -4, 1.2, nt, 7, -0.3, -3.2, -2
COc1ccc(OC)c(Nc2nc3ccccc3n3cnnc23)c1
 : -100, -1, ?, -6, 12, -1.5, -1.1, 5
CC(C)N(Cc1nc(-c2ccc3c(c2)OCO3)no1)CC1CCC(=O)N1 (stereo not given)
 : 3.2, 2, -0.2, -2, 0, -0.1, 0.3, -15
COc1ccc(C)cc1Nc1nc(C)nc2sc(C)cc12
 : -1.4, 5, 2.9, -2, -1, 0.3, -1.7, 1
COc1ccc(S(=O)(=O)NN=C2CCCCC2)cc1
 : 1.3, -16, nt, 1, 1, 0.8, 4.5, -1
Cn1c(NCc2ccccc2)nc2c1c(=O)n(Cc1ccc(Br)cc1)c(=O)n2C
 : 5.3, 6, 5.9, -12, -2, -0.2, -2.0, 14
COc1ccc(Cl)cc1NC(=S)N1CCC(c2ccc(C)cc2)C1 (stereo not given)
 : 3.8, -16, -4.3, -4, -5, 0.4, 0.3, -5
CC(C)Cn1c(CN(Cc2ccccc2)Cc2ccccc2)nc2c1c(=O)n(C)c(=O)n2C
 : 5.4, nt, nt, 7, nt, 0.4, 3.3, 6
CCc1cccc(CC)c1NC(=S)NCC(c1cccnc1)N(C)C (stereo not given)
 : 0.3, 7, 1.3, 1, 1, -0.2, 1.6, -6
CCCCn1c(N)c(N(CCOC)C(=O)CCCc2nc3ccccc3s2)c(=O)[nH]c1=O
 : 1.8, -10, 2.9, 12, -9, -0.9, nt, -3
Nc1n[nH]c2cc(=O)n(-c3cccc(C(F)(F)F)c3)nc12
 : -1.8, -17, 118*, 1, -113, 0.9, 1.4, -5
Cc1ccc(-n2c(SCC(=O)OC(C)C)nnc2-c2cnccn2)cc1
 : 1.2, 13, 2.5, -1, 3, 0.7, 2.6, -6
COc1ccc2c(c1)cc(C(=O)N[C@@H](Cc1ccccc1)C(=O)N[C@@H](C)C(=O)O)n2C
 : -80, 0, -3.2, -2, 2, 1.0, 1.3, 4
CN1C(=O)NC(c2cccc(O)c2)C(C(=O)c2cccs2)C1(O)C(F)(F)F (stereo not given)
 : 0.1, 7, 2.1, 0, -3, -0.3, -1.7, 4
CN(C)CCCC(C)(O)C(C)(C)c1ccccc1 (stereo not given)
 : 1.6, -1, -3.2, -5, 49, -0.6, 2.4, -6

Structural class, those above containing a COOH group (2)
Order of values: UCH37 inh, Calb FLC, RanGTP-Impb inh, Beta2AR agonist, T cruzi repl, A1 inh, LANA-H2A inh, Beta cell apopt
COc1ccc(C(=O)Nc2ccc(C(=O)O)cc2NC(=O)c2ccc(OC)cc2)cc1
 : 2.9, 0, -1.9, 10, -2, -0.3, 4.9, 0
COc1ccc2c(c1)cc(C(=O)N[C@@H](Cc1ccccc1)C(=O)N[C@@H](C)C(=O)O)n2C
 : -80, 0, -3.2, -2, 2, 1.0, 1.3, 4

(continued)
Order of values: UCH37 inh, Calb FLC, RanGTP-Impb inh, Beta2AR agonist, T cruzi repl, A1 inh, LANA-H2A inh, Beta cell apopt
CCCCC(=O)Nc1cccc(-c2csc(-c3ccccc3)n2)c1
 : 2.3, 35, 0.9, 3, 5, -0.4, 0.0, -6
C=CCn1c(C)cc(C(=O)CN2C(=O)c3ccccc3C2=O)c1C
 : 0.5, -4, 0.4, -3, -3, -0.4, -0.6, 3
COc1cc(CN2CC(=O)N(c3ccc(C)cc3)C2=S)cc(OC)c1OC
 : 1.7, -3, 2.1, -3, -32, 0.4, -0.3, 7
CCCNC(=O)c1ccccc1NC(=O)c1ccccc1SC
 : 0.0, -6, -2.1, -15, -7, 1.0, 3.7, -4
COc1ccc(OCC(=O)NCCc2c[nH]c3ccccc23)cc1
 : -1.5, 32, -1.4, 2, 0, -1.2, -3.1, -3
O=C(CN1CCN(Cc2ccccc2)CC1)NCCNc1ccc([N+](=O)[O-])cn1
 : 7.9, 2, 4.7, 1, 5, -0.7, 1.6, -1

Screening results deposited in PubChem by several laboratories.

The order is random; overall some 4.3% were active at least once.
